Assay outcomes from PubChem.
hNpr1 antagonist: antagonists of human natriuretic peptide receptor Npr1; Potency, µM (titrated, usually from 46.3 µM), inactives show at the top dose activity change, negative = inhibition, usual class: inhibitors; actives 1.6% (n = 76,000); HEK293 hNpr1 GloSensor cGMP, ANP-stimulated luminescence; P16066; active = well fitted inhibition curve with a large enough effect; inconclusive = small, poorly fitted or top-dose-only effect; inactive = no such curve, though single readings can be large or run the other way;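 further: nearly all actives have a fitted effect of over 60% in size; nearly all hits also lower the signal before the agonist is added; a reference antagonist and vehicle were the controls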
Target sequence (P16066 whole entry, looked up): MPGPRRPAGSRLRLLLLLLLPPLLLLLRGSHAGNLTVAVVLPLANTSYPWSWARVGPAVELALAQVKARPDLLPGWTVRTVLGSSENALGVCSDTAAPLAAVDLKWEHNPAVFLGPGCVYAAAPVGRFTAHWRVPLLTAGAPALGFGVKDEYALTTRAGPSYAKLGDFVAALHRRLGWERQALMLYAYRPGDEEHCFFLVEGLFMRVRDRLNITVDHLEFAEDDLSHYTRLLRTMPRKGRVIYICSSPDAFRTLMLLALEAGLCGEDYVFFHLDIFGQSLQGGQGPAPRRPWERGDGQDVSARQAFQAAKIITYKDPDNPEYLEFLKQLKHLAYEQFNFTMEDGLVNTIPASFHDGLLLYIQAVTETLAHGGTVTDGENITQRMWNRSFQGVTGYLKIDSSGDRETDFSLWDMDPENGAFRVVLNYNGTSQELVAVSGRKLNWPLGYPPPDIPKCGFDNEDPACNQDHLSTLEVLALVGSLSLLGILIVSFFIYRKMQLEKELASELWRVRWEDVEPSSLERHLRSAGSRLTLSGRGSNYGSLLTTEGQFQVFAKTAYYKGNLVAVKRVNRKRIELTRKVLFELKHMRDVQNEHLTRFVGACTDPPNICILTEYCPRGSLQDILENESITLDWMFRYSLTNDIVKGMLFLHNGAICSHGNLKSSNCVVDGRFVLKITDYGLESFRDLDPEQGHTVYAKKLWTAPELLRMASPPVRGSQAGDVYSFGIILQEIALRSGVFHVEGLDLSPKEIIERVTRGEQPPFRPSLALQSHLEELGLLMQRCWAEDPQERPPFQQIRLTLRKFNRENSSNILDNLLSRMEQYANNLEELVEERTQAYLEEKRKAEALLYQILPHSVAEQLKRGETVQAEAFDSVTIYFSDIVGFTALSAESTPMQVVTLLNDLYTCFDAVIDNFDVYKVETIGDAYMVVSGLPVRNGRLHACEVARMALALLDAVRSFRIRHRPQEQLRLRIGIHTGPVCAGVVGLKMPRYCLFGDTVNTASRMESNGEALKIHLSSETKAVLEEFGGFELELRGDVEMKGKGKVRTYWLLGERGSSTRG
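Compound pre-incubated 30 min at room temperature on GloSensor-loaded HEK293 cells stably carrying hNpr1 and the pGS-40F cGMP biosensor. Stimulation uses hNppA at 0.1 nM final; luminescence is taken at baseline and 20 min post-agonist.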
* hit, by the source's call; ? = inconclusive; [ ] = dose if it differs, or a comment. On the % scale 0 is the no-effect control and ±100 the full control effect; potency means the concentration at half of the fitted maximal effect. Some of the compounds tested; the hit share may differ from the screen's.

SMILES	hNpr1 antagonist
O=C(CCC1CCCC1)NC1CCc2nn(CC3CC3)c(=O)n2CC1 (stereo unspecified)	0%
Cc1ccc(C(=O)N2C(C(=O)N3CCCC3)COC23CCN(C(=O)c2ccccc2C)CC3)cc1 (stereo unspecified)	0%
O=C(Cc1ccccc1)Nc1ccc([C@@H](O)[C@H]2COCC(=O)N2Cc2ccccc2F)cc1	-1%
COCCn1ncc(N2CCC(NC(=O)C3CCCCC3)CC2)cc1=O	8%
COc1cc(OC)cc(-c2onc(C)c2C(=O)NCc2cccc(Cl)c2)c1	3%
CCOc1ccccc1-c1noc(-c2nnn3c2COC(c2ccc(C)cc2C)C3)n1 (stereo unspecified)	-14%
COCC1CN(C2CCC2)CC12CCN(S(=O)(=O)c1cccnc1)CC2 (stereo unspecified)	-15%
Cc1cccc(-c2cnc3[nH]cc(CC(=O)N4CCOCC4)c3c2)c1	13µM*
O=C(c1ccc2ncccc2c1)N1CC2CC(C1)[C@H]1CCCC(=O)N1C2 (stereo partly specified)	-3%
O=C1NCCCCCCN(C(=O)c2cccs2)[C@H]2C[C@H](c3nc(Cc4ccccc4)no3)C[C@@H]12	0%
Cc1nc2c(c(-c3ccc(Cl)cc3)n1)CN(C(=O)c1cccnc1)CC2	-3%
NC1CCN(C(=O)C2CCN(c3nc(-c4ccccc4)nc4c3CCC4)CC2)C1 (stereo unspecified)	4%
COc1cc2c(cc1OC)C(C[C@H]1CN(C(=O)CCc3ccccc3)CC[C@H]1CC(=O)O)=NCC2	-5%
Cc1cccc(NC(=O)CN2C(=O)NC3(CCCCC3)C2=O)c1C	-1%
O=C(NCc1ccccc1)N1CCCC(Cc2noc(-c3ccncc3)n2)C1 (stereo unspecified)	-23%
COC[C@@H]1CN(c2cnccn2)C[C@H]1C(=O)NCCCn1cccn1	-10%
COc1cc([C@@H]2c3cc4c(cc3[C@H](O)[C@@H](CO)[C@@H]2C(=O)NC2CC2)OCO4)cc(OC)c1OC	-1%
N#Cc1ccc(CN2CCC(c3nc4ncccc4[nH]3)C2)cc1 (stereo unspecified)	3%[70.6 µM]
COCCN1C(=O)CC[C@]2(C(=O)NC3CCCCCC3)CCCC[C@@H]12	-15%
O=C(NC[C@H]1Cn2c(-c3ccc4c(c3)OCO4)cnc2CO1)Nc1ccc(F)cc1	?
CN1C[C@@H](NC(=O)c2ccco2)C[C@H]1c1nc(-c2ccc(F)cc2)no1	4%[70.6 µM]
CN1C(=O)CCC2(CNC(=O)C3(S(=O)(=O)c4ccc(Cl)cc4)CC3)CCC=C12 (stereo unspecified)	-18%
COc1ccc([C@H]2C[C@@H](O)[C@@H](O)[C@@H]2NC(=O)c2ccc(C#N)cc2)cc1	4%[70.6 µM]
O=C(Nc1ccc(F)cc1)c1ccc(CN2C(=O)NC3(CCOCC3)C2=O)cc1	?
COCCC(=O)N1CCCN(S(=O)(=O)c2ccccc2)CCC(=O)NCC1	1%
CCCc1noc(-c2ccn3c(CNC(=O)c4ccccc4OC)nnc3c2)n1	-3%
COc1cccc(-c2cc(-c3cccs3)nc3c(C)noc23)c1	-5%[70.6 µM]
CC(C)NC(=O)NC[C@H]1OC[C@@H](NCc2ncc[nH]2)[C@@H]1O	-1%[70.6 µM]
CN1CCN(c2ccc(-c3noc([C@@H]4CCCN4Cc4ccncc4)n3)cn2)CC1	3%[70.6 µM]
O=C(Cc1ccccc1F)N1CCC(N2CC3CC(C2)[C@H]2CCCC(=O)N2C3)CC1 (stereo partly specified)	5%
C[C@]1(CO)[C@H]2Cc3sc(NC(=O)c4c(F)cccc4F)nc3[C@@H](CC(=O)NCc3cccnc3)[C@]2(C)CC[C@H]1O	-2%
COCCNC(=O)N1CCc2nn(CC3CC3)c(=O)n2CC1	-16%
O=C(NCC1CNCCOC1)NC1CCCCC1 (stereo unspecified)	0%
O=C1COCC2(CN1)CN(Cc1ccc3c(c1)CCO3)C2	-1%[70.6 µM]
Cc1noc(C)c1-c1cc(-c2cnn(C)c2)cn2cncc12	2%[70.6 µM]
COc1ccc2cc(CN3CCCC(C#N)C3)c(-c3cccs3)nc2c1 (stereo unspecified)	3%
COCCCNC(=O)NC1CCN(C(=O)N2CC3CC(C2)[C@H]2CCCC(=O)N2C3)CC1 (stereo partly specified)	4%
COC(=O)[C@@H]1Cc2ncn(Cc3ccc(OC)cc3)c2CN1CCCc1ccccc1	-25%[70.6 µM]
Cc1cc2cccc(-c3nc(C4CCOC4)nn3CC(=O)O)c2o1 (stereo unspecified)	0%
COC[C@@H]1CN(S(=O)(=O)c2cc(F)cc(F)c2)C[C@H]1C(N)=O	2%
CCCNC(=O)N1CCC(Oc2ncccc2C(=O)N2CCOCC2)C1 (stereo unspecified)	5%
COCCN1CCC(CN(CC2CCCO2)C(=O)c2cc(Cl)cn2C)CC1 (stereo unspecified)	11%
COCCNC(=O)[C@@H]1C[C@H](Oc2ccccc2)CN1C(=O)c1ccncc1	3%
COc1ccc(C)cc1NC(=O)C1(CCO)CC12CCOCC2 (stereo unspecified)	0%
C[C@@H](NC(=O)c1cccs1)c1onc(-c2ccc(F)cc2)c1C(=O)O	7%[70.6 µM]
C=CCOc1ccccc1CN(CC)C(=O)C1CCN(c2ncccn2)CC1	-1%
Cn1nc(-c2nncn2CC2CC2)c2c1CCN(C(=O)c1[nH]nc3c1COc1ccccc1-3)C2	-2%
CN(C)[C@@H]1CN(C(=O)c2ccco2)CC[C@]1(O)c1ccccc1	1%
COc1ccccc1CCC(=O)NC(C)C(=O)N1CCN(c2ccccn2)CC1 (stereo unspecified)	-5%
CN1CCC(OC2CCN(C(=O)c3ccccc3)CC2)CC1	-5%
O=C(NCc1ccccc1Cl)c1csc(N2CCN(c3ccc(F)cc3)CC2)n1	11µM*
O=C(c1cccs1)N1CCC[C@H]1c1nc(-c2ccccc2)no1	-15%
O=C(C1CCCCC1)N1CCc2nn(Cc3ccccc3)c(=O)n2CC1	0%
COC[C@@H]1[C@H](NC(=O)c2ccc(Cn3nnnc3C)cc2)[C@@H]2CCO[C@H]12	-1%
CCN(CC)C(=O)[C@@H]1C[C@H](N)CN1C(=O)c1ccc2c(c1)OCC(=O)N2	6%
Cc1nn2c(c1-c1ccccc1Oc1ccccc1)N(Cc1cccc(O)c1)CCC2	2.5µM*
CCc1cc(=O)n(CC(=O)Nc2cccc(C(C)=O)c2)c(-c2ccccc2)n1	?
Cc1ccc(C(=O)NCc2nnc3ccc(-c4ccc(F)cc4)nn23)c(C)c1	10%
O=C1NC2(CCN(Cc3ccccc3)C2)COc2ccccc21 (stereo unspecified)	2%[70.6 µM]
CCn1c(C2CCCNC2)nn(CCn2ccc(C)n2)c1=O (stereo unspecified)	10%

(next part)
SMILES	hNpr1 antagonist
CCc1noc(-c2cn(C3CCN(C(=O)c4ccc(OC)cc4)CC3)nn2)n1	0%
O=C(c1ccccn1)N1CCC2(CC1)NC(=O)N(Cc1ccc(Cl)cc1)C2=O	0%
Cc1ccc(C2NC(=O)N(CC(=O)NC3CCCC3)C3=C2C(=O)OC3)cc1 (stereo unspecified)	1%
COc1ccc(-c2nc(N3CCOCC3)cc3c2CN(Cc2ccccc2)C3=O)cc1OC	-10%
COc1ccc(C(=O)N2CCC(n3cc(-c4nc(C)no4)nn3)C2)c(C)c1 (stereo unspecified)	-18%
CCN(CC)CC[C@H]1CN(C(=O)C2CC2)CC[C@H]1CC(=O)O	8%[70.6 µM]
CC(C)CN1C(=O)c2ccccc2C(C(=O)Nc2ccc(C(N)=O)cc2)C12CCCC2 (stereo unspecified)	-2%
CCS(=O)(=O)Nc1ccc(C2(C(=O)NC3CCCC3)CCCCC2)cc1	0%
CCOc1ncccc1C(=O)N1CCC(Cc2cccc(C(N)=O)c2)C1 (stereo unspecified)	-1%
COc1ccccc1-c1ccc2ncc(Nc3ccc(C(N)=O)cc3)n2n1	-10%[70.6 µM]
Cc1ccc(C(=O)N2CCC[C@H]2c2nc(-c3ccccc3)no2)cc1C	-1%
O=C1NCCCCCCN(Cc2ccncc2)[C@@H]2CN(C(=O)CCc3c[nH]c4ccccc34)CC[C@@H]12	6%
CC(C)N1CCC(N2C[C@H]3OC(=O)N(CCc4cccc(Cl)c4)[C@H]3C2)CC1	-12%
Cc1ccc(-c2ccc3nnc(CNC(=O)COc4ccccc4)n3n2)cc1C	3%
Fc1ccc(CN2CC[C@H](c3nnc(-c4ccccc4F)o3)C2)cc1	-2%[70.6 µM]
COc1cccc(C(=O)N[C@@H]2CN(c3ccccn3)C[C@H]2CN(C)C)c1	2%
CN(C)Cc1nnc(C2CC(NC(=O)c3ccn(C)c(=O)c3)C2)n1C (stereo unspecified)	8%
COCC1CCN(c2ccc(-c3nc(CCCc4ccccc4)no3)cn2)C1 (stereo unspecified)	?
CC(C)c1noc(-c2cn(C3CCN(C(=O)Cc4ccc(F)cc4)CC3)nn2)n1	0%
COc1ccc(Cl)cc1C(=O)NC1CCN(c2cc(C(F)(F)F)nc(C)n2)CC1	?
Cc1noc(C)c1CCCNC(=O)C1CCN(C(=O)N2CC3CC(C2)[C@H]2CCCC(=O)N2C3)CC1 (stereo partly specified)	-2%
CCOc1ccc(CC(=O)N2CCCN(c3cc(-c4ccccc4)[nH]n3)CC2)cc1OCC	-1%
CN(C)C[C@@H]1CN(C(=O)c2cccc(N3CCCC3=O)c2)C[C@@H]1CO	0%
O=C(c1cccc(C(F)(F)F)c1)N1CCC(c2nn(-c3ccc(Cl)cc3)c(=O)[nH]2)CC1	4%
Cc1ccc(-n2nc(C)c([C@@H]3C=C[C@@H](N)C3)c2C)cc1Cl	3%[70.6 µM]
Cc1ccc(C(=O)N2CCC(OC3CCN(C)CC3)CC2)cc1F	1%
COc1ccc(NC(=O)N2CC[C@H]3CC(=O)N(CCN4CCNC4=O)CC[C@H]3C2)cc1	2%[70.6 µM]
CC(C)(C)c1ccc(C(=O)NCc2nnc3c(-c4nc(C5CC5)no4)cccn23)cc1	-16%
CN(C)CC(C)(C)Cn1ccnc1-c1cn(C2CCNCC2)nn1	3%
C=CCO[C@@H]1CCN(C(=O)COCC(=O)O)[C@H](C(=O)N[C@@H](Cc2cccs2)C(N)=O)C1	0%
CCn1cc(-c2ccc(C)cc2)cc1C(=O)N1CCN(c2ccccn2)CC1	14µM*
Cc1csc(NC(=O)c2ccc3c(c2)OCC(=O)N(Cc2cnn(C)c2)C3)n1	-2%[70.6 µM]
Cc1ccc(CCNc2ncncc2-c2nc(-c3ccccc3)no2)cc1	-9%
COc1ccc(NC(=O)O[C@@H]2CO[C@H]3[C@@H]2OC[C@@H]3Nc2nccc(-c3cccs3)n2)cc1	6%
CC(C)C1=NS(=O)(=O)c2cc(NC(=O)c3ccco3)ccc2N1c1ccccc1	-4%
CC(=O)c1ccc(NC(=O)CN2C(=O)NC3(CCC(C(C)(C)C)CC3)C2=O)cc1 (stereo unspecified)	-1%
CCCCNC(=O)CN1C(=O)NC2(CCOCC2)C1=O	13%
N#Cc1ccc(CN2C[C@@H](NC(=O)c3cccnc3)C[C@H]2CO)cc1	-12%
CN(C)c1ccc2ncc(Nc3ccc(Cl)cn3)n2n1	-17%[70.6 µM]
CCC1Oc2ccc(NC(=O)Cc3ccc(F)cc3)cc2CN(Cc2ccc(Cl)cc2)C1=O (stereo unspecified)	-19%
COc1cc(OC)cc(-c2onc(C)c2C(=O)NCCC(c2ccccc2)c2ccccc2)c1	-3%
Cc1cccc(CN2CC(Oc3cccc(C(=O)NCC4CC4)c3)C2)c1	2%
O=C1C(OCC2CC2)C2(CCOCC2)N1C1CCNCC1 (stereo unspecified)	-3%
COc1ccc(-n2ncc3c2CC(C)(C)CC3NC(=O)c2cc(C)[nH]n2)cc1 (stereo unspecified)	-3%
Cc1oc2c(c1C(=O)N1CCOCC1)CN(C(=O)c1ccncc1)CC2	-2%
CCOc1ccc(C(=O)N2CCC3(CCNC(=O)CC3)CC2)cc1	4%
COc1ccc2[nH]cc(CCNC(=O)C3(Cc4ccccc4)CCCCC(=O)N3)c2c1 (stereo unspecified)	4%

As a short view, part of the list above.
SMILES	hNpr1 antagonist
CC(C)C1=NS(=O)(=O)c2cc(NC(=O)c3ccco3)ccc2N1c1ccccc1	-4%
CC(=O)c1ccc(NC(=O)CN2C(=O)NC3(CCC(C(C)(C)C)CC3)C2=O)cc1 (stereo unspecified)	-1%
CCCCNC(=O)CN1C(=O)NC2(CCOCC2)C1=O	13%
N#Cc1ccc(CN2C[C@@H](NC(=O)c3cccnc3)C[C@H]2CO)cc1	-12%
CN(C)c1ccc2ncc(Nc3ccc(Cl)cn3)n2n1	-17%[70.6 µM]
CCC1Oc2ccc(NC(=O)Cc3ccc(F)cc3)cc2CN(Cc2ccc(Cl)cc2)C1=O (stereo unspecified)	-19%
COc1cc(OC)cc(-c2onc(C)c2C(=O)NCCC(c2ccccc2)c2ccccc2)c1	-3%
Cc1cccc(CN2CC(Oc3cccc(C(=O)NCC4CC4)c3)C2)c1	2%
O=C1C(OCC2CC2)C2(CCOCC2)N1C1CCNCC1 (stereo unspecified)	-3%
COc1ccc(-n2ncc3c2CC(C)(C)CC3NC(=O)c2cc(C)[nH]n2)cc1 (stereo unspecified)	-3%
Cc1oc2c(c1C(=O)N1CCOCC1)CN(C(=O)c1ccncc1)CC2	-2%
CCOc1ccc(C(=O)N2CCC3(CCNC(=O)CC3)CC2)cc1	4%
COc1ccc2[nH]cc(CCNC(=O)C3(Cc4ccccc4)CCCCC(=O)N3)c2c1 (stereo unspecified)	4%
